Cruzain noTriton: inhibitors of Trypanosoma cruzi cruzain without detergent | P25779 | purified cruzain, Z-FR-AMC fluorescence, no detergent | Potency, µM, for the others: max response, negative = inhibition, hits mostly inhibitors | 200,000 tested, 2.3% active;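 note: plate controls were enzyme without inhibitor for no effect and buffer without enzyme for full effect; nearly all actives have a fitted effect of over 40% in size; top concentration of the series not given in the record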
Target sequence (P25779 123-467 limits assumed): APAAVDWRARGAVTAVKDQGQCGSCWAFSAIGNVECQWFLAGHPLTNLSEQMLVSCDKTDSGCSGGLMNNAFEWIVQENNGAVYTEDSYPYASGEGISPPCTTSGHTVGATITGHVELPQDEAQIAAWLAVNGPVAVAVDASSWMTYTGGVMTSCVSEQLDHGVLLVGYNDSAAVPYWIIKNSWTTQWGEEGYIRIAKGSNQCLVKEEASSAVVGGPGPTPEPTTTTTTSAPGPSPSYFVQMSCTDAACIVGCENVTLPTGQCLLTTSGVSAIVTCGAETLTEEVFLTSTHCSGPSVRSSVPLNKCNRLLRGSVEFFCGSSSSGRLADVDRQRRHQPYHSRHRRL
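Detergent-free condition (0.00005% Triton X-100) in acetate buffer pH 5.5 with DTT. 1.5 nM enzyme and compound were pre-mixed 15 min, then 2 uM Z-FR-AMC substrate added; reaction progress from fluorescence change between first and third reads (60 s).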
Cruzain inh Det: inhibitors of Trypanosoma cruzi cruzain with detergent; 200,000 tested, 0.43% active; purified cruzain, Z-FR-AMC fluorescence, 0.01% Triton; Potency, µM, without a hit: max response, negative = inhibition, hits mostly inhibitors;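 note: plate controls were neutral wells for no effect and buffer without enzyme for full effect; nearly all actives have a fitted effect of over 40% in size; top concentration of the series not given in the record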
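Read-out: AMC fluorescence (360 nm excitation, 450 nm emission), four reads over 2 min, first-to-third difference used. Conditions: cruzain 1.5 nM, Z-FR-AMC 2 uM, pH 5.5 acetate, 5 mM DTT, 0.01% Triton X-100.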
RE007 growth inh: less growth of the S. pombe RE007 Vpr strain; S. pombe RE007 Vpr strain, BacTiter-Glo ATP luminescence, 24 h; control for the full effect not named in the record; Potency, µM (series often up to 92.2 µM), for the others: at the top dose activity change, negative = less growth; 360,000 tested, 0.21% active; AID 651644; active = well fitted falling curve with a large enough effect; inconclusive = small, poorly fitted or top-dose-only effect; inactive = no such curve, though single readings can be large or run the other way;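 note: % is set by controls: 0 for no effect and ±100 for the full control effect; nearly all actives have a fitted effect of over 50% in size; the assay follows cell death caused by Vpr and the record does not say whether a fall means rescue or toxicity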
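Fission yeast strain RE007, carrying one chromosomally integrated HIV-1 vpr copy, was seeded at OD 0.01 in PMG+AL medium with 23 nL pinned compound. After 24 h at 30 °C and 99% humidity, viability was read by BacTiter-Glo luminescence.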
2A StopGo: FMDV 2A StopGo reporter, luciferase signal. AID 1159524. Potency, µM (series often up to 57.9 µM), without a hit: top-dose signal change, negative = less light. human cells with a luciferase reporter of 2A StopGo recoding; control for the full effect not named in the record. 410,000 tested, 1.2% active; active = well fitted falling curve with a large enough effect; inconclusive = small, poorly fitted or top-dose-only effect; inactive = no such curve, though single readings can be large or run the other way; tested in HEK293T cells; note: % is set by controls: 0 for no effect and ±100 for the full control effect; nearly all actives have a fitted effect of over 45% in size; luciferase light after 4 h
NS1 inh: inhibitors of influenza NS1 protein function | S. cerevisiae slowed by influenza A NS1, growth recovery by OD600 | Potency, µM (series often up to 46.1 µM), inactives show at the highest dose activity, positive = more growth | 270,000 tested, 0.4% active; active means well fitted rising curve with a large enough effect; inconclusive means small, poorly fitted or top-dose-only effect; inactive means no such curve, though single readings can be large or run the other way; note: nearly all actives have a fitted effect of over 50% in size
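Growth recovery, yeast-based: influenza A NS1 expressed in S. cerevisiae causes slow growth, and suppressors are detected by OD600. The parent strain without NS1 is used as positive control.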
Lassa entry inh: Lassa virus entry inhibition | Lassa virus pseudotype entry inhibition, cell reporter; control for the full effect not named in the record | Potency, µM (top dose mostly 37.9 µM), without a hit: top-dose activity change, negative = inhibition, usual class: inhibitors | 300,000 tested, 1.2% active; active means well fitted inhibition curve with a large enough effect; inconclusive means small, poorly fitted or top-dose-only effect, or effect the other way; inactive means flat fitted curve, though single readings scatter; tested in HEK293 cells; note: % is set by controls: 0 for no effect and ±100 for the full control effect; nearly all actives have a fitted effect of over 50% in size; luciferase read-out
Marburg entry inh: Marburg virus entry inhibition. Marburg virus pseudotyped entry inhibition, cell reporter; control for the full effect not named in the record; about a third of the inactives were read at about 46 µM. Potency, µM (top dose mostly 37.8 µM), for the others: at the highest dose activity change, negative = inhibition, usual class: inhibitors. 300,000 tested, 1.8% active. AID 540276; active = well fitted inhibition curve with a large enough effect; inconclusive = small, poorly fitted or top-dose-only effect, or effect the other way; inactive = flat fitted curve, though single readings scatter; tested in HEK293 cells; about a fifth of its hits are not listed in these tables; note: % is set by controls: 0 for no effect and ±100 for the full control effect; luciferase read-out
SARS PLpro yeast: SARS-CoV PLP inhibition in yeast; S. cerevisiae expressing SARS-CoV PLpro, growth rescue; control for the full effect not named in the record; Potency, µM (series often up to 32.9 µM), inactives show at the highest dose activity, positive = growth rescue; 330,000 tested, 0.19% active; active means well fitted rising curve with a large enough effect; inconclusive means small, poorly fitted or top-dose-only effect; inactive means no such curve, though single readings can be large or run the other way; note: 0% is about no effect; nearly all actives have a fitted effect of over 55% in size; growth read by luminescence after 48 h
* = called active by the depositor; ? = inconclusive; / = not tested or not shown; & = joins results of further samples; [ ] = dose if it differs, or a comment. Unless noted, calls come from the whole dose curve; as a rule, active = well fitted curve in the direction sought with a large enough effect; inconclusive = small, poorly fitted or top-dose-only effect, or another doubt; inactive = no such curve, though single readings can be large; an effect the other way counts as inactive or inconclusive. Potency is the fitted concentration of half-maximal effect.

mol,Lassa entry inh,2A StopGo,Cruzain inh Det,NS1 inh,Cruzain noTriton,SARS PLpro yeast,RE007 growth inh,Marburg entry inh
CC1CCN(S(=O)(=O)c2ccc(S(=O)(=O)NCC3COCCO3)cc2)CC1 (stereo not given),6%,30%[activator],7.0%,-64%,?,-4%,-7%,4%
COc1cc(C(=O)NC(C)c2ccc(-n3ccnc3)cc2)cc(OC)c1C (stereo not given),3%,-22%,/,19%,/,5%,-7%,-20%[46.1 µM]
CCC(C(=O)NCCN1CCN(C)CC1)n1c(C)c2cnn(-c3ccccc3)c(=O)c2c1C (stereo not given),?,-4%,1.2%,?,-3%,-3%,32%,?
Cc1cc(C)c(NC(=O)Nc2ccc3snnc3c2)c(C)c1,8%[46.1 µM],0%,-2.8%,/,-5%,/,/,?
O=C(c1ccc(C(F)(F)F)cc1)N1CCC(=O)N([C@H](COCc2ccc(Cl)cc2)Cc2ccccc2)CC1,/,-12%,-1.4%,/,?,/,3%,/
O=C(Nc1ccccc1Br)N1CCN2CCCCC2C1 (stereo not given),12%[46.1 µM],-5%,-1.2%,/,-9%,/,/,/
O=C1CCCCCN1CP(=O)(O)CN1CCCCCC1=O,16%,-6%,/,8%,/,0%,6%,-12%
Nc1nnc(CCC2CCCCC2)s1,5%,-7%,2.4%,-6%,5%,1%,7%,8%

Copied from the list:
`CCC(C(=O)NCCN1CCN(C)CC1)n1c(C)c2cnn(-c3ccccc3)c(=O)c2c1C` (stereo not given) @ Cruzain noTriton = -3%
`O=C1CCCCCN1CP(=O)(O)CN1CCCCCC1=O` @ Lassa entry inh = 16%

Next part
mol,Lassa entry inh,2A StopGo,Cruzain inh Det,NS1 inh,Cruzain noTriton,SARS PLpro yeast,RE007 growth inh,Marburg entry inh
Cc1ccc(C(=O)OCC(=O)Nc2cc(S(C)(=O)=O)ccc2Cl)cc1S(=O)(=O)N1CCCCC1,5%,?,/,?,/,0%,1%,-9%
COc1cccc(N(CC(=O)NC2CCCC2)C(=O)Cn2nnc(-c3ccc(C)cc3)n2)c1,0%,0%,-1.1%,-36%,-11%,1%,-11%,?
Cc1cccc(NC(=O)COc2ccc(Br)cc2/C=N/O)c1,?,0%,-8.5%,-11%,-3%,-18%,-9%,?
Fc1ccc(CN2C3=NCCN3c3ccccc32)cc1,-4%,-6%,/,3%,/,3%,-25%,?
CN(C)CCNC(=O)c1cccc2nc3c(ccc4ccccc43)nc12,?,-24%,/,/,/,/,14%,?
O=C(COC(=O)c1cc([N+](=O)[O-])ccc1NCc1ccccc1Cl)NCC(F)(F)F,1%,-2%,-7.3%,25%,-4%,-2%,4%,-24%
O=C(CN1CCCC1)Nc1c(Cl)cccc1Cl,13%[46.1 µM],8%,/,27%,/,1%,-1%,9%[46.1 µM]
COc1cccc(COc2cc3ccccc3nc2C)c1,?,?,0.7%,-32%,-5%,0%,-22%,?
CCOC(=O)c1[nH]c(CSc2nnc(-c3ccc(OC)cc3)o2)c(C(=O)OCC)c1C,-25%,-17%,-2.7%,5%,0%,3.2µM*,-17%,-1%&1%
O=c1c2cc(N3CCOCC3)ccc2[nH]c(=S)n1CCCN1CCCC1,16%,-14%,-6.0%,23%,-11%,4%,-25%,?
COc1ccc(-n2c(Cc3cccn3C)nnc2SCC(=O)Nc2cccc(C)c2C)cc1,-5%,2%,-2.7%,?,5%,18%,-2%,-14%&-14%
CCOc1ccc(NC(=O)C2CC=CCC2C(=O)O)cc1 (stereo not given),29%,-10%,3.1%,2%,-10%,5%,-13%,13%
CCOC(=O)N1CCN(C(=O)COc2ccccc2OC)CC1,-18%,/,-1.6%,-3%,7%,3%,13%,-2%
CN(C)S(=O)(=O)c1ccc(C(=O)Oc2cc(=O)[nH]c3ccccc23)cc1,-3%,-3%,2.4%,-32%,5%,7%,-2%,24%
Cc1nc(-c2ccccc2)cn2c1nc1ccccc12,8%[46.1 µM],-10%,-3.4%,-8%,23%,-4%,-17%,?
CC(CC(=O)O)CC(=O)Nc1cc(C(F)(F)F)cc(C(F)(F)F)c1 (stereo not given),22%,-16%,/,11%,/,1%,3%,5%[14.2 µM]
O=C(O)c1ccc(CSc2nnc(Cc3ccccc3)o2)cc1,18%,31%[activator],0.3%,1%,-7%,3%,11%,0%
N#Cc1c2ccccc2nc2ccccc12,/,-13%,/,-8%,/,1%,?,/
O=C(Nc1c2c(nn1-c1ccc(F)cc1)CS(=O)C2)c1ccco1 (stereo not given),?,-8%,/,1%,/,15%,-10%,?
CN(CCc1ccccn1)C(=O)CCC1CCCN(C(=O)c2cccc(N(C)C)c2)C1 (stereo not given),11%[46.1 µM],-6%,/,7%,/,0%,-14%,0%[46.1 µM]
O=[N+]([O-])c1cccc(C=NNc2ccc3ccccc3n2)c1O,2.5µM*,10µM*,/,/,/,/,?,2.2µM*
COc1cc(CN2CCN(C(=O)Cc3ccccc3)CC2)cc(OC)c1OC,/,-16%,/,-11%,/,-6%,19%,/
O=S(=O)(CS(=O)(=O)c1ccccc1)c1ccccc1,11%[46.1 µM],5%,/,/,/,/,1%,-19%[46.1 µM]
CCc1c(O)nc(SCc2ccccc2)n(C(C)CC)c1=O (stereo not given),0%,0%,-4.3%,-102%,-27%,-11%,7%,8%

Among those listed so far, these have a COOH group.
mol,Lassa entry inh,2A StopGo,Cruzain inh Det,NS1 inh,Cruzain noTriton,SARS PLpro yeast,RE007 growth inh,Marburg entry inh
CCOc1ccc(NC(=O)C2CC=CCC2C(=O)O)cc1 (stereo not given),29%,-10%,3.1%,2%,-10%,5%,-13%,13%
CC(CC(=O)O)CC(=O)Nc1cc(C(F)(F)F)cc(C(F)(F)F)c1 (stereo not given),22%,-16%,/,11%,/,1%,3%,5%[14.2 µM]
O=C(O)c1ccc(CSc2nnc(Cc3ccccc3)o2)cc1,18%,31%[activator],0.3%,1%,-7%,3%,11%,0%

Continuation:
mol,Lassa entry inh,2A StopGo,Cruzain inh Det,NS1 inh,Cruzain noTriton,SARS PLpro yeast,RE007 growth inh,Marburg entry inh
COc1ccccc1N1CCN(C2CCCN(C(=O)c3ccnc4ccc(C)cc34)C2)CC1 (stereo not given),/,-13%,/,-12%,/,6%,1%,-24%
COc1ccc(-c2cc(C(=O)Nc3c(C)nn(Cc4ccccc4Cl)c3C)no2)cc1,-10%,4%,-0.4%,-11%,-2%,7%,-2%,?
CCOc1cc(S(=O)(=O)NCCc2c(C)[nH]c3ccc(C)cc23)ccc1F,?,19%,-13%,/,9%,/,/,/
CC(C)Oc1ccc(CNC(=O)C2=Cc3ccccc3OC2)cc1,-12%[46.1 µM],23%,-8.9%,/,2%,/,/,/
COc1ccc(CCN2CC(C(=O)N(C)Cc3ccc4nsnc4c3)CCC2=O)cc1 (stereo not given),-2%,-22%,/,0%,/,0%,-11%,9%
CC(C)CC(NC(=O)OCc1ccccc1)C(=O)NC(Cc1ccccc1)C(=O)CCl (stereo not given),?,25µM*,/,/,/,/,-5%,?
CCN(CC)C(NC(=O)c1ccccc1)C(=O)c1ccccc1 (stereo not given),7%,21%,0.5%,4%,1%,-4%,15%,0%
CCOc1c(Cl)cc(Cl)cc1CNCCSc1nnnn1C,-21%[46.1 µM],-12%,-1.0%,/,0%,/,/,1%[46.1 µM]
CNC(=S)N1C2CCCC1CC(NC(=O)c1ccc(F)cc1)C2 (stereo not given),/,-2%,/,12%,/,-5%,3%,/
COc1ccc(/C=N/Nc2cc(OC)ncn2)cc1,10µM*,-57%,-8.9%,-8%,-6%,-13%,-5%,?
Cc1cc(C)n2cc(CSc3nncn3C)nc2n1,7%,-6%,/,4%,/,-1%,-12%,?
O=C1/C(=N\S(=O)(=O)c2cccs2)C([n+]2ccc(CCCc3ccccc3)cc2)=C([O-])c2ccccc21,-4%,-23%,/,11%,/,-1%,1%,-27%
CC(=O)Nc1ccc(S(=O)(=O)N(C)CC(=O)Nc2ccc(Br)cc2F)cc1,2%[46.1 µM],?,/,/,/,8%,-4%,5%
COc1ccc(NC(=O)c2cn(CCC#N)nc2-c2cccs2)cc1,/,37%[activator],-3.0%,-2%,3%,-3%,1%,/
O=C(COC(=O)C12CC3CC(CC(O)(C3)C1)C2)Nc1ccc(OC(F)F)cc1,16%,28%,/,/,/,-2%,-5%,0%
CCN1CCN(C(=O)c2cc3c(=O)n(C)c4ccccc4c3n2C)CC1,/,-11%,-12%,-10%,-4%,-2%,-7%,/
CCOc1ccc(S(=O)(=O)N2CCN(C(=O)c3ccc(-n4cncn4)c([N+](=O)[O-])c3)CC2)cc1,-17%,-17%,/,/,/,1%,9%,-4%
Cc1ccc(C)c2c1c1ccccc1n2C,-1%,56%[activator],/,2%,/,1%,-12%,7%[46.1 µM]
CCOc1ccc(-c2nnc(N)o2)cc1,?,0%,2.9%,1%,17%,5%,-20%,23%
O=C(Cn1c(=O)oc2cc(S(=O)(=O)N3CCCCC3)ccc21)NCc1ccc(F)cc1,/,0%,1.5%,/,?,/,/,-1%[46.1 µM]
O=C(c1cc2ccc3cccnc3c2[nH]1)N1CCCCC1,5%[46.1 µM],-49%,-8.5%,/,-10%,/,/,/
Cc1ccc(NC(=O)COC(=O)COc2ccc(Cl)cc2)c([N+](=O)[O-])c1,5%,10%,-6.7%,-29%,-12%,-6%,/,34%
O=C(CNC(=O)c1cccs1)NCC(=O)OCc1ccc(Cl)cc1,17%,/,2.7%,14%,-8%,-5%,5%,3%
N#Cc1ccc(C23CC4(C2)[C@H](CN(Cc2ccc(-c5ccccc5)cc2)[C@@H]4c2ccccc2)C3c2ccc(Cl)nc2)cc1 (stereo not given in full),/,-12%,1.4%,5%,-27%,-3%,1%,/
N#Cc1cn(CC(=O)NCCc2c[nH]c3ccccc23)c2ccccc12,-27%,-23%,-9.1%,-8%,-19%,2%,15%,?
